Mtb MbtI inh = inhibitors of Mycobacterium tuberculosis siderophore enzyme MbtI; hit rate 0.89% among 100,000; purified MbtI enzyme, fluorescence intensity read-out; inhibition, %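 (about 17 µg/mL by stock and volumes)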; P9WFX0;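 active = above 50% in both replicates, above 80% if mildly self-fluorescent; inactive = the rest, strongly fluorescent compounds included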;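 note: 0% = mean of negative and 100% = mean of positive controls; one replicate is shown; some compounds called inactive have numbers as strong as hits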
Target sequence (P9WFX0 whole entry, looked up): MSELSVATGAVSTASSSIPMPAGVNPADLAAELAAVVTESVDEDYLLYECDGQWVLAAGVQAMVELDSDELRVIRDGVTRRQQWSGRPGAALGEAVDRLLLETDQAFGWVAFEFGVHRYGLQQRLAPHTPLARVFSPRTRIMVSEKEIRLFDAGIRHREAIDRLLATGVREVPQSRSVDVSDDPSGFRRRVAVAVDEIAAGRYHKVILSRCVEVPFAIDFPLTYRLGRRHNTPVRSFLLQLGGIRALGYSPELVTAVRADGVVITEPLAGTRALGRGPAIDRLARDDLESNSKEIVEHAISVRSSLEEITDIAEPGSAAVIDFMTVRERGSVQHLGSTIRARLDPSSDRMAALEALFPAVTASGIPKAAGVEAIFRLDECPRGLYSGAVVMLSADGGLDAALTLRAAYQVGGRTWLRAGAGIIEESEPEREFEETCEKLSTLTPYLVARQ
Polio RdRp inh = inhibitors of poliovirus RNA polymerase binding and polymerization. poliovirus polymerase elongation, fluorescence polarization; active compounds read low. % elongation, % (compound at 16.7 µg/mL). hit rate 0.66% among 150,000. AID 588519; in the data active = % elongation below about 90%; note: some results filed as inactive read as strong as hits
MenB inh = Mtb MenB enzyme inhibition; MenB enzyme assay, absorbance read-out; some hits fall short of the stated cut; AID 540299; P9WNP5; hit rate 0.43% among 100,000; inhibition, %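 (about 12 µg/mL by stock and volumes)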;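 active = mean of two replicates above 30%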;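 note: 0% = no compound and 100% = wells with inactive enzyme; the first replicate is given; strong numbers were not always called active; inactives centre near -10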
Target sequence (P9WNP5 whole entry, looked up): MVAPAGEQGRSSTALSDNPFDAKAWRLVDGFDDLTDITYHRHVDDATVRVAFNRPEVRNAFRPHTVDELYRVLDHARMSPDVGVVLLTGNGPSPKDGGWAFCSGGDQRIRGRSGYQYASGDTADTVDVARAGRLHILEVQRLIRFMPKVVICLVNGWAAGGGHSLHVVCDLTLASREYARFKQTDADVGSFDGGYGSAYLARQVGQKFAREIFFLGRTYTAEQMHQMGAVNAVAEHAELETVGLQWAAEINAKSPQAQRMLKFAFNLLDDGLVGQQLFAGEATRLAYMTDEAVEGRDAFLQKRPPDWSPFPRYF
Polio RdRp inh intensity = recorded beside Polio RdRp inh, whose call it bears; % elongation; measured here: total intensity read-out; formula for this scale not given here;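 total fluorescence in place of polarization; lower means less elongation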
Starred values were filed as active, the others as inactive; nt = no result given.

1: Cc1nc2ncnn2c(C)c1CCC(=O)N(Cc1cccnc1)c1ccc2c(c1)OCO2
2: C=C1C2(C(=O)Nc3ccccc3OC)CCC(C2)C1(C)C (stereo not drawn)
3: CCCC(c1nnnn1Cc1ccccc1)N1CCN(c2ccccc2)CC1 (stereo not drawn)
4: C/C(=N\NC(N)N)C1CCCCCCCCCCC1
5: Cc1cc(=O)[nH]c(SCC(=O)N2CCNC2=O)c1C#N
6: CCOc1ccc(S(=O)(=O)Nc2ccc(S(=O)(=O)N3CCOCC3)cc2)cc1

Compound | 1 | 2 | 3 | 4 | 5 | 6
Mtb MbtI inh | 10 | -5 | -3 | 26 | 13 | 0
Polio RdRp inh | 75 | 101 | 101 | 98 | 96 | 99
Polio RdRp inh intensity | 172 | 103 | 103 | 99 | 99 | 100
MenB inh | -25 | -22 | 2 | 31 | 11 | -15

7: NC(=NCCc1c[nH]c2ccccc12)NC(=O)c1ccccc1
8: O=C(COc1ccccc1)Nc1ccccc1N1CCN(c2ccccc2)CC1
9: CC1=CC(c2ccc(Cl)cc2)n2nc(N3C(=O)c4ccccc4C3=O)nc2N1 (stereo not drawn)
10: Cn1c(=O)c(C(N)=S)cn(-c2ccccc2)c1=O
11: Cc1cc(Nc2ccc(O)cc2)c2cc(Cl)ccc2n1
12: COc1ccc(CCN(C)Cn2ncn(C)c2=S)cc1OC

Compound | 7 | 8 | 9 | 10 | 11 | 12
Mtb MbtI inh | -8 | -8 | -1 | 1 | 6 | 18
Polio RdRp inh | 101 | 103 | 101 | 106 | 99 | 104
Polio RdRp inh intensity | 104 | 103 | 101 | 102 | 102 | 102
MenB inh | -8 | -29 | 19 | -4 | 3 | 15

Values by screen from above:
Mtb MbtI inh for nos. 2–11 → -5, -3, 26, 13, 0, -8, -8, -1, 1, 6
Polio RdRp inh intensity for nos. 2–11 → 103, 103, 99, 99, 100, 104, 103, 101, 102, 102
MenB inh for nos. 2–11 → -22, 2, 31, 11, -15, -8, -29, 19, -4, 3

Remaining list, next part:
13: CNC(=O)c1oc2ccc3c(c2c1C)C(=O)CC1(CCCCC1)O3
14: COc1ccc(C(c2ccccc2)N2CCNCC2)cc1 (stereo not drawn)
15: Cc1ccc(S(=O)(=O)NC2=NCN(CC3CCCO3)CN2)cc1 (stereo not drawn)
16: Cc1ccc(-c2noc(C3CCCN(C(=O)c4ccccc4)C3)n2)o1 (stereo not drawn)
17: CC(C)(C)C(=O)CSc1nc2ccccc2c(=O)[nH]1
18: CC(C(=O)N(C)C)N(c1cccc(Cl)c1)S(C)(=O)=O (stereo not drawn)

Compound | 13 | 14 | 15 | 16 | 17 | 18
Mtb MbtI inh | 38 | -6 | -6 | -6 | 30 | -21
Polio RdRp inh | 101 | 105 | 107 | 102 | 102 | 105
Polio RdRp inh intensity | 95 | 103 | 100 | 103 | 100 | 103
MenB inh | -15 | -56 | -72 | 2 | nt | -6

19: CCOc1ccccc1C(=O)N(Cc1cc2ccccc2[nH]c1=O)C(C)C
20: c1ccc(CCn2c(C3CCCO3)nc3ccccc32)cc1 (stereo not drawn)
21: CCc1ccc(NC2CC(=O)NC2=O)cc1 (stereo not drawn)
22: COc1cccc2c1OC(C(C)C)N1N=C(c3cc(C)ccc3O)CC21 (stereo not drawn)
23: CCOC(=O)c1ccc(NCC(=O)N2CCc3ccccc32)cc1
24: O=C(O)CC(C(=O)O)c1ccc(Cl)cc1Cl (stereo not drawn)

Compound | 19 | 20 | 21 | 22 | 23 | 24
Mtb MbtI inh | nt | -4 | -8 | -6 | -19 | -18
Polio RdRp inh | 106 | 101 | 103 | 103 | 104 | 101
Polio RdRp inh intensity | 110 | 103 | 103 | 103 | 107 | 101
MenB inh | -16 | 0 | -20 | 2 | nt | -23

25: CN1C(=O)Cc2c1nc(N)c1c(N)nc(N3CCN(C(=O)c4ccco4)CC3)c(C#N)c21
26: O=C(NCc1ccccc1)c1ccc2c(c1)sc1nc(-c3ccccc3)cn12
27: CC(C)C(NC(=O)c1ccc(F)cc1)C(C)C
28: CCOC(=O)c1c(NC(=O)c2cc(-c3cccc(OC)c3)on2)sc(C)c1C
29: CCC(CC)NC1CCN(Cc2ccccc2)CC1
30: N#CCC(=O)Nc1ccc(C(=O)OCC(=O)N(Cc2ccccc2)C2CCS(=O)(=O)C2)cc1 (stereo not drawn)

Compound | 25 | 26 | 27 | 28 | 29 | 30
Mtb MbtI inh | -47 | 9 | -14 | 46 | -1 | -8
Polio RdRp inh | 119 | 101 | 100 | 102 | 102 | nt
Polio RdRp inh intensity | 124 | 108 | 102 | 101 | 104 | nt
MenB inh | 1 | 10 | -7 | -8 | -27 | -15

31: CC(C)NC(=O)C1=CC(c2ccco2)=NS(=O)(=O)N1C
32: CCCC(=O)Nc1ccc(-n2c(C)ccc2C)cc1
33: c1ccc(-c2csc(N3CCN(c4ncccn4)CC3)n2)cc1
34: COCCCn1c(C)cc(C(=O)Cn2nc(C)c(C)c(C#N)c2=O)c1C
35: CCOC(=O)c1ccc(Oc2cc(C)nc(SC)n2)cc1
36: O=C1CN(NC(=O)NC2CCCCC2)C(=O)N1

Compound | 31 | 32 | 33 | 34 | 35 | 36
Mtb MbtI inh | 7 | -5 | -12 | -1 | -8 | 10
Polio RdRp inh | 104 | 105 | 102 | 100 | 104 | 96
Polio RdRp inh intensity | 100 | 109 | 101 | 108 | 108 | 100
MenB inh | -38 | -12 | -101 | -20 | -3 | -8

37: O=C(Nc1ccc(Cn2nnc3ccccc32)cc1)c1cccs1
38: C[N+]1(CC(O)C[N+]2(C)CCCCC2)CCCCC1
39: CCCN1C(=O)C(O)(CC(=O)c2ccc(OC)cc2OC)c2cc(Br)ccc21 (stereo not drawn)
40: c1cn(-c2ccc(N3CCCCC3)nn2)cn1
41: N=C1/C(=C2\Nc3ccccc3S2)CC(=O)N1CCc1ccccc1
42: CCCc1nnc(SCC(=O)Nc2ccccc2)o1

Compound | 37 | 38 | 39 | 40 | 41 | 42
Mtb MbtI inh | 166 | nt | -12 | nt | -39 | 12
Polio RdRp inh | 100 | 105 | 104 | 107 | 104 | 101
Polio RdRp inh intensity | 110 | 104 | 108 | 111 | 111 | 105
MenB inh | -14 | -8 | -8 | -17 | -20 | -12

43: CC(C)c1ccc(C(=O)OCC(=O)N2CCCCC2)cc1
44: CCCCN(C)Cc1ccncc1
45: Cc1cc(OC(=O)/C=C/c2ccc(C)o2)n(Cc2c(Cl)cccc2Cl)n1
46: O=C(NC1CCCCC1)c1c[nH]c2ccc(S(=O)(=O)Nc3ccc4c(c3)OCCO4)cc2c1=O
47: c1ccc(NC(c2ccccc2)c2nnc(-c3ccccc3)o2)cc1 (stereo not drawn)
48: CC1(C)CC(NC(=O)NC23CC4CC(CC(C4)C2)C3)CC(C)(C)N1

Compound | 43 | 44 | 45 | 46 | 47 | 48
Mtb MbtI inh | -14 | -12 | -2 | -47 | -2 | -14
Polio RdRp inh | 101 | 100 | 109 | 99 | 102 | 102
Polio RdRp inh intensity | 104 | 103 | 107 | 101 | 103 | 103
MenB inh | nt | 0 | -21 | 7 | 8 | -12

An excerpt of these results, with tabs:
cpd	compound	Mtb MbtI inh	Polio RdRp inh	Polio RdRp inh intensity	MenB inh
44	CCCCN(C)Cc1ccncc1	-12	100	103	0
45	Cc1cc(OC(=O)/C=C/c2ccc(C)o2)n(Cc2c(Cl)cccc2Cl)n1	-2	109	107	-21

More entries:
49: Cc1[nH]c(=O)[nH]c1C
50: CN1CCC(NC(=S)NCCc2ccccc2)CC1
51: CCOC(=O)Cn1c(=O)c(C2OCCO2)cc2c(C)ccc(C)c21
52: COc1ccc(C2CC(=O)C3=C(C2)NC(=O)CC3c2ccccc2)cc1 (stereo not drawn)
53: COc1ccc(NC(=O)COC(=O)C2CCN(C(=O)Nc3ccccc3)CC2)cc1Cl
54: COc1ccc2[nH]c(=O)c(CN(CCO)S(=O)(=O)c3ccc(Cl)c(C(F)(F)F)c3)cc2c1

Compound | 49 | 50 | 51 | 52 | 53 | 54
Mtb MbtI inh | -5 | -3 | 2 | -1 | -2 | 23
Polio RdRp inh | 104 | 102 | 99 | 102 | 100 | 100
Polio RdRp inh intensity | 98 | 100 | 99 | 105 | 105 | 100
MenB inh | -1 | 7 | -25 | -19 | 13 | 33*

55: Cc1nc2n(Cc3ccccc3)c3ccccc3n2c1C(=S)Nc1ccccc1
56: CC1Cc2ccccc2N1S(=O)(=O)c1cccc(C(=O)NC2CC2)c1 (stereo not drawn)
57: CSC1=C(C#N)C(c2ccccc2Cl)C2=C(CCCC2=O)N1 (stereo not drawn)
58: CC12CC3(C)CC(C)(C1)CC(C(=O)NC1=NCCS1)(C2)C3
59: C=C(C)CNC(=S)N1CCNCC1
60: C=C(C)c1cccc(C(C)(C)NC(=O)N2CCCC(C(N)=O)C2)c1 (stereo not drawn)

Compound | 55 | 56 | 57 | 58 | 59 | 60
Mtb MbtI inh | 3 | -11 | nt | -13 | -14 | 5
Polio RdRp inh | 103 | 102 | 105 | 102 | nt | 100
Polio RdRp inh intensity | 106 | 103 | 108 | 106 | nt | 106
MenB inh | -61 | nt | -14 | -42 | -62 | -5

61: O=C(O)CCn1nc(-c2ccc(F)cc2)cc(Cc2ccccc2)c1=O
62: O=C(O)CNC(=O)c1ccc2ccccc2c1
63: N#CC(c1ccc(Br)cc1)N1CCN(C(C#N)c2ccc(Br)cc2)CC1 (stereo not drawn)
64: CCCNC(=O)c1cc(-c2ccccc2)on1
65: NNc1ccccc1C(F)(F)F
66: Nc1ccccc1SC(CC(=O)c1ccc(Br)cc1)c1ccccc1 (stereo not drawn)

Compound | 61 | 62 | 63 | 64 | 65 | 66
Mtb MbtI inh | -2 | 70 | -17 | -3 | -7 | 18
Polio RdRp inh | 104 | 95 | 101 | 101 | 101 | 104
Polio RdRp inh intensity | 104 | 95 | 98 | 99 | 104 | 107
MenB inh | -10 | -1 | nt | -1 | nt | -56

67: COc1ccc(-c2ccc(Nc3ccc(OC(F)(F)F)cc3)nn2)cc1
68: O=c1cc(CSc2nnc(-c3ccccc3)o2)c2ccccc2[nH]1
69: Cc1ccc2nc(C3CCCN(C(=O)NCc4ccccc4)C3)[nH]c2c1 (stereo not drawn)
70: CC1CCN(C(=O)c2cc3n(n2)C(C(F)(F)F)CC(c2ccccc2)N3)C(C)C1 (stereo not drawn)
71: COc1ccccc1CNC(=O)COc1cc(C)nn1-c1ccc(Cl)cc1
72: CC1CCCC(NC(=O)Nc2noc3c2COc2ccccc2-3)C1C (stereo not drawn)

Compound | 67 | 68 | 69 | 70 | 71 | 72
Mtb MbtI inh | -6 | 7 | 4 | -28 | 10 | -17
Polio RdRp inh | 104 | 103 | 102 | 101 | 102 | 101
Polio RdRp inh intensity | 107 | 99 | 99 | 101 | 104 | 104
MenB inh | -4 | -19 | -43 | -32 | nt | -14

73: CCOc1ncccc1C(=O)Oc1ccc2c(c1)OCO2
74: Cc1cc(C(=O)OCC(=O)N2c3ccccc3Sc3ccccc32)no1
75: CC(=O)N1CC=C2C(C#N)=C(N)C(C#N)(C#N)C(CCc3ccccc3)C2C1 (stereo not drawn)
76: CC(OC(=O)c1ccc(Oc2ccccc2)cc1)C(N)=O (stereo not drawn)
77: NS(=O)(=O)c1cccc(C(=O)OCc2ccc(Cl)cc2)c1
78: COC(=O)c1cnc(-n2ncc(C#N)c2N)nc1C(F)(F)F

Compound | 73 | 74 | 75 | 76 | 77 | 78
Mtb MbtI inh | -2 | -4 | 76 | -8 | 6 | -5
Polio RdRp inh | 101 | 103 | 104 | 104 | 100 | 96
Polio RdRp inh intensity | 105 | 105 | 102 | 110 | 110 | 97
MenB inh | -6 | -11 | -47 | 3 | -20 | 4

79: NC(=O)CSc1nnc(-c2cccnc2)n1-c1ccccc1
80: O=C(NCCc1c[nH]c2ccccc12)c1cc2ccccc2oc1=O
81: CC(=O)Nc1sc2c(c1C(N)=O)CCCC2
82: N#C/C(=C(/O)CCCN1C(=O)c2ccccc2C1=O)c1nc2ccccc2[nH]1
83: CC(O)(CNCc1ccc(Cl)cc1)CSc1ccccc1Cl (stereo not drawn)
84: O=C(NCCCN1CCCC1=O)c1c(O)nc2ccccn2c1=O

Compound | 79 | 80 | 81 | 82 | 83 | 84
Mtb MbtI inh | -5 | -5 | -5 | -28 | -2 | 56
Polio RdRp inh | 102 | 103 | 100 | 104 | 101 | 102
Polio RdRp inh intensity | 108 | 107 | 101 | 105 | 107 | 101
MenB inh | -14 | nt | 34 | -15 | -6 | -7

85: O=C(OCc1c(Cl)cccc1Cl)c1ccc(Br)o1
86: CCOc1ccc(-c2nnn(CC(=O)NC3CCCCC3)n2)cc1
87: COC(=O)c1c(OC)ccc(NC=C(C#N)C#N)c1OC
88: COc1ccc(C2=NS(=O)(=O)N(C)C(C(=O)N3CCC(C)CC3)=C2)cc1OC
89: COc1ccccc1N(CC(=O)NC1CC2CCC1C2)S(=O)(=O)c1ccc(C)cc1 (stereo not drawn)
90: c1ccc(-c2cc(-c3cn4cccnc4n3)on2)cc1

Compound | 85 | 86 | 87 | 88 | 89 | 90
Mtb MbtI inh | -8 | -9 | -2 | -8 | 17 | 44
Polio RdRp inh | 103 | 103 | 101 | 106 | 99 | 100
Polio RdRp inh intensity | 106 | 102 | 101 | 103 | 100 | 92
MenB inh | nt | -13 | 7 | -55 | 0 | -15

Excerpt: nos. 84–87
84: O=C(NCCCN1CCCC1=O)c1c(O)nc2ccccn2c1=O
85: O=C(OCc1c(Cl)cccc1Cl)c1ccc(Br)o1
86: CCOc1ccc(-c2nnn(CC(=O)NC3CCCCC3)n2)cc1
87: COC(=O)c1c(OC)ccc(NC=C(C#N)C#N)c1OC

Compound | 84 | 85 | 86 | 87
Mtb MbtI inh | 56 | -8 | -9 | -2
Polio RdRp inh | 102 | 103 | 103 | 101
Polio RdRp inh intensity | 101 | 106 | 102 | 101
MenB inh | -7 | nt | -13 | 7
